Bioassay records as filed in PubChem BioAssay.
Autofluor counter: counter-screen for toxin protease inhibitors: compound fluorescence; compound autofluorescence counterscreen, microsphere flow cytometry; active compounds read high; fluorescence intensity (concentration not given with the values); actives 3.1% (n = 360,000); AID 624483;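 active = at least 3 SD above the mean of all compounds, about 16000 in these data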;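 note: 100 nL of 1 mM stock went into each well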
BJeLR viability: BJeLR cell viability loss; BJeLR (HRASV12) viability, CellTiter-Glo ATP luminescence, 48 h; reference of the scale not given here; inhibition, % (test concentration not listed); actives 0.17% (n = 300,000);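 active = replicate mean above 50%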;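 note: 50 nL library stock added to about 25 µL; numbers are from one replicate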
Sa ugtP lethal: compounds lethal to S. aureus RN4220 ugtP deletion mutant; OD600 growth, 16 h; some inactives read as strong as hits; growth inhibition, % (no concentration beside the values); actives 0.54% (n = 330,000); AID 1259309;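 active = z-score under -3 and OD600 up to 0.15 on both plates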;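 note: plate controls were untreated wells for no effect and antibiotic for full effect; wells of about 80 µL received 100 nL stock; the first replicate is given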
PrP 5UTR inh: inhibition of PrP 5' UTR reporter expression | cell-based PrP 5' UTR mRNA reporter, plate reader | inhibition, % (no concentration beside the values) | actives 0.35% (n = 340,000) | AID 488862;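 active = every replicate at 50% or more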;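 note: 0 = median of the neutral control wells; tested in H4 reporter cells; numbers are from one replicate; inactives centre near -14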
RN4220 kill: kills Staphylococcus aureus RN4220; S. aureus RN4220 growth, OD600, 16 h; inhibition, % (test concentration not listed); actives 0.33% (n = 330,000);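 active = z-score of -3 or lower and OD600 up to 0.18 on both plates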;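 note: plate controls were untreated cells for no effect and reference antibiotic for full effect; stock transfer was 100 nL into about 80 µL; one replicate is shown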
Mtb hypoxia inh: inhibitors of hypoxia-regulated fluorescent reporter in Mycobacterium tuberculosis; M. tuberculosis hypoxia-regulated fluorescent reporter, fluorescence; actives 0.1% (n = 300,000); fluorescence inhibition, % (concentration not given with the values);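 active = 35 to 45% if threefold the growth effect, above 45% if 1.5-fold the growth effect; inactive = the rest, general growth blockers included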;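 note: wells of about 50 µL received 100 nL stock; 0% = vehicle wells and 100% = reference inhibitor wells; whole bacteria with a GFP reporter of the hypoxia response; strong numbers were not always called active; many hits fall short of the cut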
Mtb hypoxia inh growth: further read-out of Mtb hypoxia inh, marked with its call; growth inhibition, %; measured here: M. tuberculosis growth (absorbance);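 0% = vehicle and 100% = reference antibiotic; read after six days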
The depositor's hits bear a star; x = not tested or not shown.

SMILES	Autofluor counter	BJeLR viability	Sa ugtP lethal	PrP 5UTR inh	RN4220 kill	Mtb hypoxia inh	Mtb hypoxia inh growth
Cc1occc1C(=O)Nc1ccccc1NC(=O)c1ccoc1C	3772	-1	-14	-22	-1.2	8	6
Cc1csc(=O)n1CCC(=O)N(C)Cc1c(F)cccc1Cl	3734	x	8	-15	7.8	11	11
Cc1c(N)cc2c(c1N)C(C)(C)CC2(C)C	4112	x	9	-11	5.7	6	0
CCC(Sc1nc(-c2ccccc2)c(-c2ccccc2)[nH]1)C(=O)O (stereo not drawn)	3468	1	14	-16	1.9	9	-3
CC(=O)Nc1ccc(NC(=O)C(C)n2nc([N+](=O)[O-])c(Br)c2C)cc1 (stereo not drawn)	10090	-3	4	1	3.5	13	6
CCSc1nnc(NC(=O)c2ccc(S(=O)(=O)N(C)C)cc2)s1	2736	2	2	-18	2.2	-6	-7
CCCS(=O)(=O)C/C(N)=N/OC(=O)c1ccccc1Cl	3302	12	9	x	1.9	15	4
COc1cc(S(=O)(=O)N(Cc2cccs2)CC2CCCO2)ccc1-n1cnnn1 (stereo not drawn)	5631	17	1	-6	4.7	7	14
Cc1cc(NC(=O)c2cccs2)ncc1NC(=O)C(C)C	3603	8	2	-50	-1.2	1	4
COc1ccc(CCC(=O)NCC2CCCCC2)cc1OC	5858	2	4	-7	5.4	9	19
COc1ccc2c3c1OC1C(=O)CC[C@@]4(O)[C@@H](C2)N(CC2CC2)CC[C@]314 (stereo partly drawn)	5767	x	-7	-9	1.0	x	x
O=C(Cc1cnc2ncnn2c1)N1CCc2c([nH]c3ccccc23)C1c1ccccn1 (stereo not drawn)	3698	8	-1	1	-1.8	12	5
Cn1c(=O)n(C)c2cc(C(=O)c3ccccc3)ccc21	10215	3	9	x	6.3	6	9
O=C(CCCn1nnnc1CN1CCOCC1)N1CCC(c2ccccc2F)C1 (stereo not drawn)	6149	-3	2	-5	5.6	10	2
Cc1[nH]c(C)c(S(=O)(=O)N(Cc2ccccc2)C(C)C)c1C(=O)N1CCCC1	6158	-2	2	3	0.8	-2	-10
Cc1cnc(C(=O)N2CCCC(C(=O)c3ccc(Cl)cc3C)C2)cn1 (stereo not drawn)	4323	2	-8	4	0.4	5	-4
CCCC(C(=O)NC(C)(C)CC)N(Cc1ccco1)C(=O)CNS(=O)(=O)c1ccccc1 (stereo not drawn)	3055	3	2	-5	2.4	3	-2
CS(=O)(=O)c1ccc(Cl)c(C(=O)NCC2CCCCC2)c1	3979	-10	5	-17	2.4	19	11
Cc1ccc(S(=O)(=O)N2CCN(C(=O)Cn3c(=O)oc4ccccc43)CC2)c(C)c1	3273	x	2	-18	7.4	-3	5
CCOc1ccc(Nc2ccc([N+](=O)[O-])c3nonc23)cc1	3896	10	5	-48	12	16	6
CCC(C)(C)n1nnnc1C(c1cc2cc(C)cc(C)c2[nH]c1=O)N1CCN(C(=O)c2ccco2)CC1 (stereo not drawn)	5067	-6	7	-8	2.8	3	2
CCN1C(=O)C(=C2C=C(C)OC(C)=C2)C(=O)N(CC)C1=S	2283	-1	3	-12	3.6	-2	3
CN1C(C(=O)Nc2ccc(OC(F)(F)F)cc2)=CC(c2ccc3c(c2)OCO3)=NS1(=O)=O	4842	-2	1	-15	1.0	9	6
CC(C)(C)n1nnnc1C(c1cccnc1)N(Cc1ccccc1)Cc1cccs1 (stereo not drawn)	2656	3	9	-2	5.7	-1	13
O=c1c2cc3c(nc2[nH]c(=S)n1-c1ccccc1)CCCC3	x	-6	-2	-19	-3.9	-17	1
Cc1ccc(C(=O)NC(=S)NCc2cccnc2)cc1	2460	1	10	-23	-0.6	0	1
COc1ccccc1-c1n[nH]c(=S)n1-c1ccccc1	2406	3	14	-25	8.5	x	x
Cc1cc(NC(=O)COc2ccc3ccccc3c2Br)no1	3581	x	-2	-67	-1.9	5	2
CCn1c(/C=C/c2c(C)n(CC)c3ccccc23)nc2ccccc2c1=O	2315	-1	-4	-18	3.3	0	0
CCOC(=O)c1c(-c2ccc(C)cc2)csc1NC(=O)c1ccc(N2C(=O)CCC2=O)cc1	2042	-7	7	-20	0.1	-6	5
N#C/C(=C\c1ccc2c(c1)OCCO2)C(=O)Nc1ccc(C(=O)O)cc1	4104	-2	9	-63	8.7	15	7
CCc1ccc(NP(=O)(Oc2ccccc2F)Oc2ccccc2F)cc1	4268	3	-21	-29	-7.2	12	7
CC(C)OCCCNC(=O)Cn1ccc2cc(S(=O)(=O)N3CCCCCC3)ccc21	6026	-4	0	-6	2.7	-7	2
O=C(c1ccc(CNS(=O)(=O)c2ccccc2)cc1)N1CCC2(CC1)OCCO2	4069	x	8	-19	1.0	x	x
O=C(N[C@@H](Cc1ccccc1)C(=O)O)c1cccs1	6311	0	x	-9	x	x	x
COc1cc(C(=O)NC(=S)Nc2ccc([N+](=O)[O-])cc2C)cc(OC)c1OC	2334	-4	7	-27	4.6	7	0
COc1ccc(/C(C)=N/OC/C(O)=C(\C#N)c2nc3ccccc3[nH]2)c(OC)c1	2564	-9	x	-10	x	x	x
N#C/C(=C(/O)c1ccc([N+](=O)[O-])cc1)c1nnc2n1CCCCC2	3403	-9	14	-24	7.8	-5	3
Cc1nn(-c2ccccc2)c(N2CCCC2)c1/C=N/NC(=O)c1cc(-c2ccccc2)nc2ccccc12	2674	15	x	-6	x	x	x
CN(C)/C=C/C(=O)C(Cl)(Cl)Cl	2280	-2	5	-16	3.3	-4	4
Cc1cc(C)nc(Sc2c(C)n[nH]c2C)n1	12633	1	10	-20	7.5	8	2
Cc1ccc(N2C(=O)CC(N3CCN(C4CCc5ccccc5C4)CC3)C2=O)cc1 (stereo not drawn)	3170	15	-4	-3	3.8	-12	6
COc1ccc(-n2c(C)cc(C(=O)CN3CCC(C)CC3)c2C)cc1	4679	5	-2	-38	2.1	2	6
Cc1ccc(N2C(=O)C(O)(C(F)(F)F)C3=C2CC(C)(C)CC3=O)cc1C (stereo not drawn)	8176	-4	18	-1	11	6	8
CC(NC(=O)C12CC3CC(CC(C3)C1)C2)C(=O)NN=CC1=C(N2CCOCC2)/C(=C\c2cccc([N+](=O)[O-])c2)CC1 (stereo not drawn)	x	x	-4	x	-1.9	5	-3
COc1ccc(NC(=O)CN(C)C(=O)C(NC(=O)c2ccco2)C(C)C)cc1 (stereo not drawn)	4699	x	6	-10	3.0	7	4
Cc1ccc(N2CCCn3c2cc(C)c(C#N)c3=O)cc1C	21058*	4	9	-10	2.4	8	7
CCn1c(SCC(=O)Nc2ccc(OC)c(OC)c2)nnc1-c1cccs1	9014	-7	-1	-12	4.6	-1	16
Cn1c(=O)[nH]c(=O)c2c1nc(N1CCCC1)n2CCCSc1nc2ccccc2o1	9747	6	-4	-14	5.0	-5	12
CCSc1nc(CC)c2c(c1C#N)CCCC2	1982	-12	27	-8	11	1	7
COc1ccccc1-c1c(C)nn2c(C)cc(C)nc12	6181	-17	12	-12	6.6	-2	6
Cc1ccc(OCCn2cccn2)c(C)c1	2349	5	5	-13	4.8	11	8
CCc1c(C(=O)N/N=C/c2cccs2)nnn1-c1nonc1N	4410	3	x	-24	x	x	x
Cn1c(=O)oc2cc(S(=O)(=O)NCCN3CCN(c4ccccc4)CC3)ccc21	6451	-4	9	-9	4.2	5	4
OC[C@H]1O[C@H](OCc2ccccc2)[C@H](O[C@@H]2OC[C@@H](O)[C@H](O)[C@H]2O)[C@@H](O)[C@@H]1O	5711	7	-1	-22	4.2	x	x
Cc1cccc(NC(=O)CCS(=O)(=O)c2ccc3c(c2)oc(=O)n3C)c1	4365	12	12	-14	6.8	6	-3
COc1ccc(CCN2C(=O)c3[nH]nc(-c4ccccc4O)c3C2c2ccc(C)cc2)cc1OC (stereo not drawn)	17753*	-4	-31	-22	7.8	-12	3
O=C(NNC(=S)NC1CCCCC1)c1ccccc1Cl	3818	4	2	-26	-1.0	9	-2
C=CCNC(=O)/C(=C/c1cccc([N+](=O)[O-])c1)NC(=O)c1ccco1	3950	5	-1	-21	5.2	11	5
Cc1ccc(C(=O)CSc2ncnc3sc4c(c23)CCCC4)cc1	5797	4	-13	-21	29	x	x
New compounds follow.
SMILES	Autofluor counter	BJeLR viability	Sa ugtP lethal	PrP 5UTR inh	RN4220 kill	Mtb hypoxia inh	Mtb hypoxia inh growth
O=C(c1ccc(COc2ccccc2Cl)o1)N1CCOCC1	5261	-9	2	-17	-0.1	-5	5
CCOC(=O)CC1(NC(=O)C2CCC(=O)N(CCc3ccccc3)C2)CCCCC1 (stereo not drawn)	5052	13	6	-11	1.9	1	7
CCOc1cc(C=NO)cc(Cl)c1OCC	x	x	23	x	1.7	7	4
CC(C)N1CCN(Cc2ccc(OCc3ccccc3)cc2)CC1CCO (stereo not drawn)	3612	3	x	-6	x	x	x
COC(=O)c1cc(NC(=O)Cc2ccccc2[N+](=O)[O-])cc(C(=O)OC)c1	18194*	2	0	-3	9.6	12	8
O=C(CC(CC(=O)c1ccccc1)C(=O)O)c1ccccc1	4362	-5	2	-23	0.8	0	6
CCN(c1ccccc1)S(=O)(=O)c1cccc(C(=O)NCC2(N(C)C)CCCCC2)c1	8110	x	4	-15	6.4	5	4
COc1ccc(S(=O)(=O)N2CCN(Cc3c[nH]c4ccccc34)CC2)cc1	4466	6	17	-11	0.2	x	x
CC(NCc1ccc(OCc2ccc(Cl)cc2)cc1)C(O)c1ccccc1 (stereo not drawn)	5821	6	-1	-40	38	20	21
Nc1c2c(nc3ccn(-c4ccccc4)c(=O)c13)CCCCC2	3127	4	-8	-14	-8.3	24	-18
Cc1cc(C)c(S(=O)(=O)N2CCC(C(=O)OCc3c(C)noc3C)CC2)c(C)c1	9096	x	2	-8	9.3	7	1
O=C(Nc1ncc(Cc2cc(Cl)ccc2Cl)s1)c1ccc([N+](=O)[O-])cc1	3395	9	0	12	12	2	10
O=C(c1cnc2ccc(Cl)cc2c1Cl)N1CCOCC1	4329	-5	-6	-29	3.4	-3	-3
CCCCC[C@@H]1C=C(C(=O)O)[C@H](c2ccc(OC)c(OC)c2)N1S(=O)(=O)c1ccc(C)cc1	3204	x	4	-3	9.0	-3	2
Cc1cs/c(=N\N=C\c2ccc(O)cc2)n1Cc1ccco1	1872	-8	x	-22	x	x	x
CCCOc1cccc(NC(=O)OC2CCN(C)CC2)c1	10880	0	7	-26	2.0	-1	5
COc1ccc(S(=O)(=O)N(c2onc(C)c2Cl)S(=O)(=O)c2ccc(OC)cc2)cc1	3016	1	5	-3	3.9	8	4
CCCCC[C@H](O)/C=C/[C@@H]1[C@@H](CCCCCCC(=O)O)[C@@H](O)C[C@H]1O	5688	-13	x	-19	x	x	x
CCCCN(C(=O)Cn1nnc2ccccc21)C(C(=O)NCCOC)c1ccc(OC)cc1OC (stereo not drawn)	3056	5	7	-9	0.2	x	x
COc1ccccc1C(CNC(=O)C1COc2ccccc2O1)N1CCCC1 (stereo not drawn)	9072	x	0	11	-0.1	-5	2
COc1cc(-c2nc3ccccn3c2/N=C/c2cccc(OC)c2O)ccc1O	2877	-5	x	-2	x	x	x
CC1CC(C)CN(C(=O)/C=C/c2ccc(S(=O)(=O)N3CCOCC3)cc2)C1 (stereo not drawn)	3832	x	1	-10	1.6	-1	-3
CC1CN(C(C)CO)C(=O)c2cccc(NC(=O)CCCCCC(=O)Nc3ccccc3N)c2OC1CN(C)C (stereo not drawn)	x	x	-5	x	5.3	8	1
COc1ccccc1OCC(=O)Nc1ccc(N2CCOCC2)cc1N1CCOCC1	5502	x	5	-3	6.6	7	5
O=C(CCc1nc(-c2ccc(Cl)cc2)no1)NCc1ccccc1CN1CCOCC1	8632	x	-1	0	4.1	1	0

In the list so far, 5 contain fluorine.
SMILES	Autofluor counter	BJeLR viability	Sa ugtP lethal	PrP 5UTR inh	RN4220 kill	Mtb hypoxia inh	Mtb hypoxia inh growth
Cc1csc(=O)n1CCC(=O)N(C)Cc1c(F)cccc1Cl	3734	x	8	-15	7.8	11	11
O=C(CCCn1nnnc1CN1CCOCC1)N1CCC(c2ccccc2F)C1 (stereo not drawn)	6149	-3	2	-5	5.6	10	2
CN1C(C(=O)Nc2ccc(OC(F)(F)F)cc2)=CC(c2ccc3c(c2)OCO3)=NS1(=O)=O	4842	-2	1	-15	1.0	9	6
CCc1ccc(NP(=O)(Oc2ccccc2F)Oc2ccccc2F)cc1	4268	3	-21	-29	-7.2	12	7
Cc1ccc(N2C(=O)C(O)(C(F)(F)F)C3=C2CC(C)(C)CC3=O)cc1C (stereo not drawn)	8176	-4	18	-1	11	6	8
